Autofluor counter – counter-screen for toxin protease inhibitors: compound fluorescence. 3.1% of 360,000 active. compound autofluorescence counterscreen, microsphere flow cytometry; stronger effect = higher value. fluorescence intensity (no concentration beside the values);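 active means at least 3 SD above the mean of all compounds, about 16000 in these data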;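 further: 100 nL of 1 mM stock went into each well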
PrP UTR inh – inhibition of PrP 5' UTR reporter expression | inhibition, % (test concentration not listed) | cell-based PrP 5' UTR mRNA reporter, plate reader | 0.35% of 340,000 active;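 active means every replicate at 50% or more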;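 further: 0 = median of the neutral control wells; tested in H4 reporter cells; numbers are from one replicate; inactives centre near -14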
Numbers without * were called inactive; & = joins results of further samples. Some of the compounds tested; count on the stated rates, not on these rows.

The line under a structure holds: Autofluor counter	PrP UTR inh
CC(=O)OCC(COC(C)=O)OC(C)=O
  6382	-17
CCN1C(=NCCCOC(C)C)N[C@@H](c2ccccc2)[C@H](C(=O)OC)[C@H]1C
  3700	-19
CC(C)(C)OC(=O)C[C@@H]1C/C=C\C[C@H](CC(=O)N(CCO)Cc2ccccc2)C(=O)N[C@H](C(C)(C)C)COC1=O
  2871	60*
COc1ccc(-c2nc3cnccn3c2NC2CCCCC2)cc1-c1cccc(Cl)c1
  3865&6583	-25
O=C(Nc1cccc2nsnc12)c1cc2c(cc1Cl)Sc1nccn1S2(=O)=O
  5399	-13
C#CCOCCOCCOCCNc1nc(N2CCN(C(=O)CCCCCCCCCCNC(=O)[C@@H](CCSC)n3cc(CCO)nn3)CC2)nc(N2CCN(C(=O)CCCCCCCCCCNC(=O)[C@H](CCCN=C(N)N)n3cc(C[C@@H](C)CC)nn3)CC2)n1
  4327	-14
C[C@H]1COC(=O)CC/C=C\C[C@H](CC(=O)N(CCO)Cc2ccccc2)C(=O)N1
  2678	-13
N#CC(C#N)=C(N)/C(C#N)=C/c1cc(O)c(O)c(O)c1
  5589	-13
COc1ccccc1NC(=S)NN=C(C)c1ccccn1
  3078	10
CCOc1cc(C=NNC(=O)CCCC(=O)NN=Cc2ccc(O)c(OCC)c2)ccc1O
  3774	-4
O=C(O)c1cccc(Br)c1
  5182	-13
NC(=O)C1CCCN1Cc1ccc2c(c1)OCO2 (stereo unspecified)
  15344	-5
O=C(NC[C@H]1CCCO1)c1cccc2c1C(=O)c1ccc(-c3ccc(F)cc3OCc3ccccc3)cc1S2(=O)=O
  3035	-10
N#CC1(NC(=O)CSc2nncn2-c2ccccc2F)CCCC1
  3578	-22
CC(C)C[C@H]1CNC(=S)N1CC1CCCN1C[C@H](CC(C)C)N1C[C@H](Cc2ccc(O)cc2)N(CC2CCCCC2)C1=S (stereo partly specified)
  3444	-20
Cc1cc2[nH]c3c4ccccc4nc(C)c3c2cc1C
  4447	-48
Cc1noc(C)c1NC(=O)Nc1ccc2c(c1)C(=O)N([C@H](C)CO)C[C@H](C)[C@@H](CN(C)S(=O)(=O)c1ccccc1)O2
  3531	-9
CNCCNC[C@H](Cc1cccc2ccccc12)NCCc1ccccc1
  4674	-6
O=C(NCCSSCCNC(=O)c1ccccc1)c1ccccc1
  3103	0
C[C@H](CO)N1C[C@H](C)[C@@H](CN(C)S(=O)(=O)c2cccs2)Oc2c(NC(=O)C3CCCCC3)cccc2C1=O
  3090	-2
COc1cc2nc(N3CCN(C(=O)OCc4ccccc4)[C@H](C(=O)NC(C)(C)C)C3)nc(N)c2cc1OC
  4611	-6
COc1cc(NC(=O)c2cc(S(=O)(=O)N3CCCCC3)ccc2N2CCOCC2)cc(OC)c1OC
  3082	8
CCC1=C(CC2NCCc3ccccc32)CC2c3cc(OC)c(OC)cc3CCN2C1 (stereo unspecified)
  4713	7
CCOC(=O)[C@]12Cc3cc(N(C)C)ccc3[C@H]1N(Cc1ccccc1)C(=O)c1ccccc12
  3500	-78
CCC1(O)C(=O)OCc2c1cc1n(c2=O)Cc2cc3cc(O)ccc3nc2-1 (stereo unspecified)
  5528	23
C=C(CC[C@@H](O)C(C)(C)O)[C@H]1CC[C@]2(C)[C@@H]1CCC1[C@@]3(C)CCC(=O)C(C)(C)C3CC[C@]12C (stereo partly specified)
  4215	-6
NC(=O)C12C(=O)NC(=O)C1(C(=O)O)C21CCCC1 (stereo unspecified)
  4364	-10
O=C1C=C(c2cccc(CO)c2)C[C@@H](c2ccc(F)cc2)C1
  4419	-8
O=C(c1ccc(Cl)cc1)c1cccc(O)c1
  4216	-20
COc1cc(NC(=O)[C@@H]2CCCN(S(=O)(=O)c3cccc4cccnc34)C2)cc(OC)c1OC
  3747	-11
COc1ccc(CCCN2CCC(CN3CCNC(=O)C3=O)CC2)cc1OC
  4103	-34
CC(C)C[C@H]1CN([C@@H](CC(C)C)CN2CCCC2CN2C(=S)NC[C@@H]2Cc2ccc(O)cc2)C(=S)N1CC1CCCCC1 (stereo partly specified)
  3856	-6
O=C1C=CC(=O)c2c(O)c(CO)c(CO)c(O)c21
  2833	-5
Nc1ncnc2c1ncn2C1C=C(CO)C(O)C1O (stereo unspecified)
  4171	26
FC(F)(F)c1cc(CCN2CCNC[C@@H]2CC2CCCCC2)cc(C(F)(F)F)c1
  2908	-16
C/C(CC(=O)NC1CCCC1)=N\NC(=O)C1CCCCC1
  4269	-12
Cc1c(CCNC=O)cc(C)c2c3c(oc12)CCCC3
  3944	-87
C/C=C/C1=CC(=O)C[C@H](c2ccc(Cl)cc2)C1
  4015	-7
CCCCN1CC(=O)N2[C@H]3c4cc(Cl)ccc4OC[C@@H]3[C@H](c3ccccc3)[C@]2(C)C1=O
  3924	-8
O=c1[nH]c2cc([N+](=O)[O-])ccc2c2ccccc12
  3063	-6

Next section; the last 4 above are carried over.
The line under a structure holds: Autofluor counter	PrP UTR inh
Cc1c(CCNC=O)cc(C)c2c3c(oc12)CCCC3
  3944	-87
C/C=C/C1=CC(=O)C[C@H](c2ccc(Cl)cc2)C1
  4015	-7
CCCCN1CC(=O)N2[C@H]3c4cc(Cl)ccc4OC[C@@H]3[C@H](c3ccccc3)[C@]2(C)C1=O
  3924	-8
O=c1[nH]c2cc([N+](=O)[O-])ccc2c2ccccc12
  3063	-6
Cc1c(C(=O)N/N=C/c2ccc(O)c(Br)c2)sc(N)c1C#N
  2494	14
Cc1cnc(NC(=O)C2CC(=O)N(c3ccc4c(c3)OCCO4)C2)s1 (stereo unspecified)
  2797	-9
C#CCOCCOCCOCCNc1nc(N2CCN(C(=O)[C@H](CCCCN)n3cc([C@@H](N)CC(N)=O)nn3)CC2)nc(N2CCN(C(=O)[C@H](CCCCN)n3cc([C@@H](N)CC(N)=O)nn3)CC2)n1
  2900	12
CCOC(=O)Oc1c(OC)cc(C(=O)O[C@@H]2C[C@@H]3CN4CCc5c([nH]c6cc(OC)ccc56)[C@H]4C[C@@H]3[C@H](C(=O)OC)[C@H]2OC)cc1OC
  4719	-10
CC(C)(C)OC(=O)C[C@@H]1C/C=C\C[C@@H](CC(=O)N[C@@H](CO)Cc2ccccc2)C(=O)NC[C@@H](c2ccccc2)OC1=O
  3500	-43
CC(=NNC(=S)N1CC2CCC(CC2)C1)c1nccs1
  2938	12
Clc1cccc(-c2ccc(C3Nc4cccc5cccc(c45)N3)o2)c1
  3561	-20
COc1cc(C2c3cc4c(cc3OC(NCCc3ccccc3)C2C)OCO4)cc(OC)c1OC (stereo unspecified)
  3078	12
C/C(=N\NC(=O)c1ccc(-n2cnnn2)cc1)c1ccc(Cl)cc1
  4326	-13
CCOc1ncccc1C(=O)OC(C)C(=O)Nc1ccc(Cl)cn1 (stereo unspecified)
  5804	3
CN(C)c1ccc(C=c2c3cc(O)ccc3n3c2cc(-c2ccccc2)[n+]3C)cc1
  2068	-20
C=CC[C@@H](CC(=O)N[C@@H](CO)Cc1ccccc1)C(=O)N[C@H](C)COC(=O)[C@@H](CC=C)Cc1ccc(F)cc1
  2994	-7
N#C/C(=C\c1ccc(O)c(O)c1)C(=O)NCc1ccccc1
  6190	-12
C[C@H](CO)N1C[C@H](C)[C@@H](CN(C)Cc2ccncc2)Oc2c(cccc2N(C)C)C1=O
  4289	-5
CC(C)(C)OC(=O)N1CCCC(C(=O)Nc2cccc(C(=O)NCCCc3ccccc3)c2)C1 (stereo unspecified)
  3749	-13
CC(C)C[C@H]1CN([C@@H](CC(C)C)CN2CCCC2CN2C(=S)NC[C@@H]2Cc2ccc(O)cc2)C(=S)N1CC1CCCCCC1 (stereo partly specified)
  3720	-15
Cc1ccc(S(=O)(=O)N2[C@@H](c3ccccc3)C(C(=O)O)=CC[C@H]2c2ccc(C(C)C)cc2)cc1
  3457	-23
Cc1ccc2nc(C(Cl)(Cl)Cl)nc(N/N=C/c3ccc([N+](=O)[O-])cc3)c2c1
  3981	-23
COC(=O)C1=C(C)N(Cc2ccccc2)C(=NCc2cccc(Cl)c2)N[C@H]1c1cccc(F)c1
  3847	4
COc1ccc([C@@H]2CC=C(C(=O)O)CN2S(=O)(=O)c2ccc(Cl)cc2)cc1
  3815	-7
CC(C)C[C@H]1CNC(=S)N1CC1CCCN1C[C@H](CC(C)C)N1C[C@H](CC(C)C)N(CC2CCCCCC2)C1=S (stereo partly specified)
  3800	-13
CC(NS(=O)(=O)c1ccc(Br)cc1)C(=O)Nc1nc2ccccc2[nH]1 (stereo unspecified)
  3915	-8
C/C(=N\NC(=O)CCC(=O)NCc1ccccc1)c1ccco1
  5617	-6
COc1ccc2ccc3ccc(OC)c(OC(C)=O)c3c2c1
  2870	-15
COC(=O)[C@@H](Cc1ccccc1)NC(=O)Cn1cc(C)c(=O)[nH]c1=O
  4313	-20
O=C(Nc1cccc(C(=O)N2CCOCC2)c1)C1CCCC1
  3713	-30
C#CCOCCOCCOCCNc1nc(N2CCN(C(=O)CCCCCCCCCCNC(=O)Cn3cc(C[C@@H](C)O)nn3)CC2)nc(N2CCN(C(=O)CCCCCCCCCCNC(=O)[C@@H](CCC(=O)O)n3cc(CCCCCN)nn3)CC2)n1
  3682	-17
CCCCCC1C(=O)C[C@@H]2CCN3C(=O)CCC[C@H]1[C@H]23 (stereo partly specified)
  3155	0
C#CCN1C(C)=CC(=O)[C@@H](O)[C@H]1c1ccccc1Br
  3374	-13
[O-][N+](=Cc1ccccc1)c1ccc(Cl)cc1
  2993	-107
O=C1OCC2=C1C(c1ccc3c(c1)OCO3)c1cc3c(cc1O2)OCO3 (stereo unspecified)
  3744	4
CN(C)c1ccc(/C=N/NC(=O)C2CC2c2ccccc2)cc1 (stereo unspecified)
  4073	-23
O=C(c1ccccc1)c1ccc(O)c(O)c1O
  5308	-11
C#CCOCCOCCOCCNc1nc(N2CCN(C(=O)CCCCCCCCCCNC(=O)[C@H]([C@@H](C)CC)n3cc(CCCCCN)nn3)CC2)nc(N2CCN(C(=O)CCCCCCCCCCNC(=O)[C@H](CO)n3cc(CCCCCN)nn3)CC2)n1
  3956	-20
O=C(NCCNCc1ccccc1)c1ccco1
  2931	0
NCC(=O)NCC(=O)NC[C@H]1O[C@@H](n2ccc(=O)[nH]c2=O)[C@H](O)[C@@H]1O
  3764	0
O=C1CCC/C=C\C[C@H](CC(=O)N(CCO)Cc2ccccc2)C(=O)N2CCC[C@@H]2CO1
  4117	-11
CC[C@@H](C)[C@@H]1CN([C@@H](CN2CCC[C@H]2CN2C(N)=NC[C@@H]2Cc2ccccc2)C(C)C)C(=N)N1CCCC1CCCC1
  3714	-3
O=[N+]([O-])c1cccc2nc3ccccc3c(NCCCn3ccnc3[N+](=O)[O-])c12
  2589	87*
CCCCCCCCCCOC(=O)CCN1CC1
  4248	-20

Quoted from above (2 entries):
The line under a structure holds: Autofluor counter	PrP UTR inh
O=[N+]([O-])c1cccc2nc3ccccc3c(NCCCn3ccnc3[N+](=O)[O-])c12
  2589	87*
CCCCCCCCCCOC(=O)CCN1CC1
  4248	-20

Record cards, as listed above. Order of values: Autofluor counter	PrP UTR inh
CC[C@@H](C)[C@@H]1CN([C@@H](CN2CCC[C@H]2CN2C(N)=NC[C@@H]2Cc2ccccc2)C(C)C)C(=N)N1CCCC1CCCC1 across the screens: 3714	-3
[O-][N+](=Cc1ccccc1)c1ccc(Cl)cc1 across the screens: 2993	-107

Next section
The line under a structure holds: Autofluor counter	PrP UTR inh
CCCC(=O)OCC1CN(Cc2ccco2)S(=O)(=O)c2c(F)cccc2O1 (stereo unspecified)
  3816	-23
Cn1c(=S)sc2ccc3ccccc3c21
  3668	-9
O=C1C=C(c2cccc(O)c2)C[C@@H](c2ccc(F)cc2)C1
  4240	-22
Cc1cn(CC(=O)NCCCc2ccccc2)c(=O)[nH]c1=O
  3786	-14
Cc1[nH]c(=S)[nH]c(=O)c1Cc1c(O)ccc2ccccc12
  3056	3
COCCN1CCC(CO)C1 (stereo unspecified)
  4367	-20
COc1ccc(OCc2cn(CC(=O)c3ccc(O)cc3)nn2)cc1
  3114	-17
CCOC(=O)[C@H]1[C@H]2COc3ccc(Br)cc3[C@@H]2N2C(=O)c3ccc(Cl)cc3NC(=O)[C@@]12C
  3710	-16
COc1ccc(S(=O)(=O)Nc2ccc3c(c2)C(=O)N([C@H](C)CO)C[C@H](C)[C@@H](CN(C)S(=O)(=O)c2ccccc2)O3)cc1
  3801	-23
CC(=O)C1CCC2C3C(N4CC4)CC4=CC(=O)CCC4(C)C3CCC12C (stereo unspecified)
  3542	-17
O=c1oc(Cl)c(Cl)c2ccccc12
  5823	0
COc1cc(/C=C(/C)[N+](=O)[O-])ccc1OCc1ccccc1Cl
  2116	-52
Cc1ccc(NC(=O)c2ncn(CCCNCc3ccc4c(c3)OCO4)n2)cc1C
  2976	-26
CCCC1(CC(C)C)C(=O)NC(=S)NC1=O
  2846	-17
CN/N=C(\Cc1nc2ccccc2[nH]1)c1ccc([N+](=O)[O-])cc1
  4138	-25
C=CCC[C@H](Cc1ccc(F)cc1)C(=O)OC[C@@H](NC(=O)[C@H](CC=C)CC(=O)NCCO)C(C)(C)C
  3445	-19
CCOC(=O)c1cc2c(=Cc3ccc(N(C)C)cc3)c3ccccc3n2[n+]1C
  2360	0
O=C(Cc1c(F)cccc1Cl)OCC(=O)N1CCN(c2ccccc2)CC1
  3841	-19
CCOc1ccc(CCN2C(=S)N([C@@H](CC(C)C)CN3CCCC3CN3C(=S)NC[C@@H]3CC(C)C)C[C@@H]2CC(C)C)cc1 (stereo partly specified)
  4505	-7
CC(=O)Nc1cc([N+](=O)[O-])ccc1OCc1ccccc1
  3376	-13
